# Source: PubChem (National Center for Advancing Translational Sciences (NCATS))
# SARS PLP yeast = inhibitors of SARS-CoV papain-like protease in yeast; S. cerevisiae expressing SARS-CoV PLpro, growth rescue; control for the full effect not named in the record; Potency, µM (doses to about 32.9 µM), for the others: at the top dose activity, positive = growth rescue; hit rate 0.19% among 330,000; AID 485353; active means well fitted rising curve with a large enough effect; inconclusive means small, poorly fitted or top-dose-only effect; inactive means no such curve, though single readings can be large or run the other way; also: 0% is about no effect; nearly all actives have a fitted effect of over 55% in size; growth read by luminescence after 48 h
# Cruzain noTriton = inhibitors of Trypanosoma cruzi cruzain without detergent; P25779; AID 1476; purified cruzain, Z-FR-AMC fluorescence, no detergent; hit rate 2.3% among 200,000; Potency, µM, for inactives: max response, negative = inhibition, usual class: inhibitors;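 also: plate controls were enzyme without inhibitor for no effect and buffer without enzyme for full effect; nearly all actives have a fitted effect of over 40% in size; top concentration of the series not given in the record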
# Target sequence (P25779 123-467 limits assumed): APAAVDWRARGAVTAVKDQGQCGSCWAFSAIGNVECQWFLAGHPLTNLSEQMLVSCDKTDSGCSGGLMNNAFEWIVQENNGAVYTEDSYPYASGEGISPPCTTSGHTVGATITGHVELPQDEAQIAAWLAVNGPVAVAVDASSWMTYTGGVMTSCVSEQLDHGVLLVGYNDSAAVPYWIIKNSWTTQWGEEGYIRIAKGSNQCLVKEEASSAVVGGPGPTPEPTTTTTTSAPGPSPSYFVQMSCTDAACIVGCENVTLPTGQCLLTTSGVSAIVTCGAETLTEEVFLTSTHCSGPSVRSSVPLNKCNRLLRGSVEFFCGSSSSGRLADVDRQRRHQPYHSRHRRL
#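 Detergent-free condition (0.00005% Triton X-100) in acetate buffer pH 5.5 with DTT. 1.5 nM enzyme and compound were pre-mixed 15 min, then 2 uM Z-FR-AMC substrate added; reaction progress from fluorescence change between first and third reads (60 s).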
# NS1 function inh = influenza NS1 inhibition. S. cerevisiae slowed by influenza A NS1, growth recovery by OD600. Potency, µM (doses to about 46.1 µM), for inactives: top-dose activity, positive = more growth. hit rate 0.4% among 270,000. AID 2326; active means well fitted rising curve with a large enough effect; inconclusive means small, poorly fitted or top-dose-only effect; inactive means no such curve, though single readings can be large or run the other way; also: nearly all actives have a fitted effect of over 50% in size
#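 Compounds were scored for reversing the slow growth caused by influenza A NS1 in S. cerevisiae, measured by optical density at 600 nm. Assay medium contained 2% galactose at pH 6.0; NS1-free yeast of the same strain were the positive control.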
# LASV entry inh = blocks Lassa virus binding to or entry into cells | Potency, µM (top dose mostly 37.9 µM), without a hit: at the highest dose activity change, negative = inhibition, hits mostly inhibitors | AID 540256 | hit rate 1.2% among 300,000 | Lassa virus pseudotype entry inhibition, cell reporter; control for the full effect not named in the record; active means well fitted inhibition curve with a large enough effect; inconclusive means small, poorly fitted or top-dose-only effect, or effect the other way; inactive means flat fitted curve, though single readings scatter; tested in HEK293 cells; also: % is scaled to controls: 0 for no effect and ±100 for the full control effect; nearly all actives have a fitted effect of over 50% in size; luciferase read-out
# RE007 growth inh = less growth of the S. pombe RE007 Vpr strain. hit rate 0.21% among 360,000. Potency, µM (top dose mostly 92.2 µM), inactives show at the highest dose activity change, negative = less growth. S. pombe RE007 Vpr strain, BacTiter-Glo ATP luminescence, 24 h; control for the full effect not named in the record; active = well fitted falling curve with a large enough effect; inconclusive = small, poorly fitted or top-dose-only effect; inactive = no such curve, though single readings can be large or run the other way;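 also: % is scaled to controls: 0 for no effect and ±100 for the full control effect; nearly all actives have a fitted effect of over 50% in size; the assay follows cell death caused by Vpr and the record does not say whether a fall means rescue or toxicity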
#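 Fission yeast RE007 carrying one integrated HIV-1 vpr copy, seeded at OD 0.01 in PMG+AL medium with 23 nL pinned compound. Grown 24 h at 30 degrees; viability read by BacTiter-Glo luminescence after 5 min.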
# 2A StopGo = FMDV 2A StopGo reporter, luciferase signal | human cells with a luciferase reporter of 2A StopGo recoding; control for the full effect not named in the record | Potency, µM (highest dose often 57.9 µM), without a hit: at the highest dose signal change, negative = less light | hit rate 1.2% among 410,000; active = well fitted falling curve with a large enough effect; inconclusive = small, poorly fitted or top-dose-only effect; inactive = no such curve, though single readings can be large or run the other way; tested in HEK293T cells; also: % is scaled to controls: 0 for no effect and ±100 for the full control effect; nearly all actives have a fitted effect of over 45% in size; luciferase light after 4 h
# Cruzain Triton = blocks cruzain activity in presence of Triton detergent; purified cruzain, Z-FR-AMC fluorescence, 0.01% Triton; Potency, µM, without a hit: max response, negative = inhibition, usual class: inhibitors; hit rate 0.43% among 200,000; AID 1478;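 also: plate controls were neutral wells for no effect and buffer without enzyme for full effect; nearly all actives have a fitted effect of over 40% in size; top concentration of the series not given in the record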
#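 Purified cruzain (1.5 nM final) was preincubated with compounds for 15 min at room temperature in 100 mM sodium acetate pH 5.5, 5 mM DTT, 0.01% Triton X-100. Reaction started with 2 uM Z-FR-AMC; AMC fluorescence change over 60 s gave activity.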
# Marburg entry inh = blocks Marburg virus binding to or entry into cells. Marburg virus pseudotyped entry inhibition, cell reporter; control for the full effect not named in the record; about a third of the inactives were read at about 46 µM. Potency, µM (titrated, usually from 37.8 µM), for the others: at the top dose activity change, negative = inhibition, actives largely listed as inhibitors. hit rate 1.8% among 300,000. AID 540276; active = well fitted inhibition curve with a large enough effect; inconclusive = small, poorly fitted or top-dose-only effect, or effect the other way; inactive = flat fitted curve, though single readings scatter; tested in HEK293 cells; about a fifth of its hits are not listed in these tables; also: % is scaled to controls: 0 for no effect and ±100 for the full control effect; luciferase read-out
# An asterisk follows results filed as active; ? = inconclusive; / = not tested or not shown; & = joins results of further samples; [ ] = another dose, or the depositor's remark. Unless noted, calls follow the shape of the dose curve; as a rule, active = well fitted curve in the direction sought with a large enough effect; inconclusive = small, poorly fitted or top-dose-only effect, or another doubt; inactive = no such curve, though single readings can be large; an effect the other way counts as inactive or inconclusive. Potency is read from the fitted curve at half-maximal effect.
SMILES,SARS PLP yeast,Cruzain noTriton,NS1 function inh,LASV entry inh,RE007 growth inh,2A StopGo,Cruzain Triton,Marburg entry inh
COc1ccccc1N1CCN(Cc2ccco2)CC1,1%,-3%,2%,14%,12%,13%,5.3%,?
Cc1ccc(N2CC(C(=O)N/N=C/c3sccc3C)CC2=O)cc1 (stereo not given),1%,10%,-14%,-3%,-12%,20%,-1.4%,-18%
CCc1cnc2c(c1SCc1ccccc1C)c(=O)n(C)c(=O)n2C,/,-3%,/,0%[46.1 µM],/,0%,-0.2%,/
Cc1ccc(Cl)cc1N1CCN(C(=O)CCCn2c(=O)c3cccn3c3cccnc32)CC1,?,/,-2%,/,-3%,?,/,/
CCc1ccccc1N1C(=O)N(Cc2ccc(C#N)cc2)c2ccccc2S1(=O)=O,/,1%,/,-2%[46.1 µM],/,-16%,-2.5%,/
CC(=O)NCc1ccc(S(=O)(=O)N2CCN(S(=O)(=O)c3ccc4ccccc4c3)CC2)cc1,0%,/,/,?,10%,-7%,/,?
Cc1ccc(NC(=O)NN(C)c2c(Cl)c(Cl)nn2C)cc1,-12%,/,/,8%[46.1 µM],11%,-10%,/,12%[46.1 µM]
COc1cc(NC(=O)CSCC(=O)Nc2cc(OC)cc(OC)c2)cc(OC)c1,2%,/,-7%,/,6%,-25%,/,/
NS(=O)(=O)c1ccc(CNC(=O)Cc2ccc(S(=O)(=O)N3CCOCC3)s2)cc1,0%,/,/,0%,-11%,-10%,/,2%[46.1 µM]
COC(=O)C=CC(=NNc1ccccc1)c1ccccc1,/,/,/,-17%[46.1 µM],-9%,-20%,/,?
CC1CCN(C(=O)c2ccc(Br)c(S(=O)(=O)N3CCOCC3)c2)CC1,0%,/,12%,1%,-13%,0%,/,8%[46.1 µM]
CCOC(=O)/C=C/S(=O)(=O)c1ccc(NC(C)=O)cc1,-7%,-2%,-11%,-27%,?,?,1.4%,-28%
CCOC(=O)C1(Cc2ccccc2C(F)(F)F)CCN(C(C)COC)CC1 (stereo not given),-2%,/,-1%,/,-10%,-23%,/,/
O=C(c1ccccc1[N+](=O)[O-])N1CCc2ccccc2C1,9%,7%,-6%,22%,1%,-22%,-1.8%,?
O=c1[nH]c2ccc(NC(=S)NCc3ccccc3)cc2[nH]1,0%,/,-2%,/,11%,-14%,/,/
COc1ccc(NC(=O)CCN2C(=O)c3cccc([N+](=O)[O-])c3C2=O)cc1,0%,/,14%,26%[46.1 µM],4%,-8%,/,1%[46.1 µM]
S=c1[nH]c2cc3ccccc3cc2[nH]1,-4%&-1%,/,-4%&3%,/,7%,6%,/,/
Cc1cc(Br)ccc1NC(=O)CCSc1ccccc1,-14%,5%,-11%,10%,4%,/,-2.1%,-9%
Cc1cc(=O)oc(C)c1C(=O)OCC(=O)c1ccc(Cl)cc1,-8%,7%,-16%,-9%,-2%,-9%,-2.1%,?
COc1ccc(N2CCOCC2)c(NC(=O)c2cccc3ccccc23)c1,-9%,/,-107%,/,-7%,-15%,/,/

# Three neighbouring records out of the list so far:
SMILES,SARS PLP yeast,Cruzain noTriton,NS1 function inh,LASV entry inh,RE007 growth inh,2A StopGo,Cruzain Triton,Marburg entry inh
Cc1cc(Br)ccc1NC(=O)CCSc1ccccc1,-14%,5%,-11%,10%,4%,/,-2.1%,-9%
Cc1cc(=O)oc(C)c1C(=O)OCC(=O)c1ccc(Cl)cc1,-8%,7%,-16%,-9%,-2%,-9%,-2.1%,?
COc1ccc(N2CCOCC2)c(NC(=O)c2cccc3ccccc23)c1,-9%,/,-107%,/,-7%,-15%,/,/

# Later entries:
SMILES,SARS PLP yeast,Cruzain noTriton,NS1 function inh,LASV entry inh,RE007 growth inh,2A StopGo,Cruzain Triton,Marburg entry inh
Cc1cccc(NC(=O)c2ccc(-n3ccnc3)nc2)c1,-3%,-8%,-13%,5%,-10%,1%,6.7%,?
CS(=O)(=O)N(CC(=O)N1CCOCC1)c1ccccc1,10%,/,6%,10%[46.1 µM],-9%,-4%,/,7%[46.1 µM]
O=C(CCS(=O)(=O)c1ccc(Cl)cc1)Nc1nnc(-c2ccco2)o1,-1%,/,/,?,9%,-6%,/,?
CCOc1cc(/C=C2\NC(=S)N(C)C2=O)ccc1OCc1ccc(C(=O)O)cc1,-1%,/,6%,/,-2%,-16%,/,/
Cc1cccc(N2CCN(C(=O)CCc3nc4ccccc4[nH]3)CC2C)c1 (stereo not given),-1%,-5%,4%,/,3%,?,-2.1%,/
Cc1cc(C)c2c3c(cn2n1)c(=O)n(C)c(=O)n3C,/,/,/,9%,-5%,-10%,/,-14%[46.1 µM]
COc1ccc(N2C(=O)C3CC(C)=C(C)CC3C2=O)c(OC)c1 (stereo not given),5%,-6%,-11%,8%,-6%,-22%,2.0%,-4%
Cc1ccc2c(c1)C(=O)CC1(CCCCCC1)O2,-1%,/,3%,/,6%,1%,/,/
CC(=O)Nc1ccc(S(=O)(=O)Nc2ccc(-c3ccc4nnc(C)n4n3)cc2)cc1,0%,/,/,0%,14%,9%,/,8%[46.1 µM]
Cc1ccc2c(c1)nc(NCCO)n2C,-2%,-4%,-4%,15%,-3%,8%,-1.5%,-6%
Cc1cc(=O)oc(C)c1C(=O)Nc1ccc(F)cc1,0%,/,-4%,/,5%,-12%,/,/
CN1C(=O)CS(=O)c2ccc(C(=O)NCCC3=CCCCC3)cc21 (stereo not given),-4%,-5%,?,/,2%,-21%,-2.0%,/
CCn1cnc2c1c(=O)n(CC(=O)Nc1cc(C)on1)c(=O)n2Cc1ccccc1,12%,-8%,-10%,-2%,-6%,/,0.6%,12%
CN(CC(=O)Nc1ccccc1C(F)(F)F)C(=O)c1cccc(-n2cccc2)c1,2%,/,/,4%,-21%,-9%,/,7%
O=C(NC(=S)Nc1ccccn1)c1ccco1,3.2µM*,11%,1%,?,-2%,38%[activator],0.5%,?
CC(C)(C)CC(C)(C)NC(=O)/C=C/C(=O)O,0%,/,1%,3%,6%,-4%,/,-1%
COc1cc(OC)c(OC)cc1CN1CCN(S(=O)(=O)c2ccc(F)cc2)CC1,1%,-1%,-4%,-11%,8%,0%,3.9%,-16%
O=C(NC1CCCCC1)C(c1ccc2ncccc2c1)N(Cc1ccccc1)C(=O)c1ccc2c(c1)OCCO2 (stereo not given),-3%,20%,1%,-25%,-6%,/,2.7%,?
COc1ccc(OC)c(NC2=NC3(CCCCC3)N=C(N)N2)c1,2%,-11%,1%,3%,6%,5%,-0.5%,8%[46.1 µM]
N#Cc1c(-c2ccc(Cl)cc2)nc2n(c1=O)CCCS2,1%,-29%,-120%,11%,-13%,/,-0.9%,12%
O=C(CSc1nc2ccccc2c(=O)n1-c1ccccc1)NCc1ccc2c(c1)OCO2,-1%,-1%,-5%,-2%,0%,/,0.7%,-5%
CCc1ccc(NC(=O)Cn2c(=O)n(CCC(=O)NCCc3ccc(Cl)cc3)c(=O)c3ccccc32)cc1,/,7%,/,-16%[46.1 µM],/,-14%,-2.5%,26%[46.1 µM]
CC(C)CNC(=O)Cn1c(=O)c2c(ncn2CC(C)C)n(Cc2ccccc2)c1=O,1%,/,1%,?,5%,18%,/,-7%[46.1 µM]
Cc1cccc(NC(=O)Cn2c(=O)n(CCc3ccccc3)c(=O)c3ccccc32)c1,/,8%,/,-7%[46.1 µM],/,-14%,-3.2%,17%[46.1 µM]
COC(=O)c1ccc(NC(=O)CN(Cc2ccc(Cl)cc2)S(C)(=O)=O)cc1,2%,6%,-23%,-2%,0%,-20%,-9.8%,?
CC(C)(C)NC(=O)CN(C(=O)CN1C(=O)C(=O)c2ccccc21)C(C)(C)C,-6%,/,/,?,8%,-7%,/,-1%[46.1 µM]
COc1cc(CSc2nc(-c3ccccc3)cc(=O)[nH]2)cc(OC)c1,0%,/,4%,/,10%,-15%,/,/
O=C(COC(=O)C1CCN(c2ccc(C(F)(F)F)cn2)CC1)c1ccccc1,-4%,/,/,3%,-3%,-16%,/,-19%[46.1 µM]
COc1ccc(C(=S)N2CCN(C)CC2)cc1,-5%[6.58 µM],-20%,6%,16%,12%,5%,4.3%,18%
O=C(O)CC(CC(=O)Nc1ccc2ccccc2n1)c1ccccc1 (stereo not given),2%,/,2%,?,-2%,-11%,/,-2%[46.1 µM]
Cc1cc(=O)oc2cc(OCc3ccc(C(=O)OCC(=O)NC4CCS(=O)(=O)C4)cc3)ccc12 (stereo not given),-4%,/,-34%,4%,7%,-6%,/,7%[46.1 µM]
CCN1CCN(c2ncnc3c2nnn3Cc2ccccc2)CC1,?,-3%,-4%,-24%,0%,1%,-1.8%,4%
Cc1ccc(S(=O)(=O)N(C)C)cc1NS(=O)(=O)c1ccc(Cl)s1,-6%,-21%,-23%,5%,9%,0%,-4.8%,-6%
O=C(/C(C=Nc1ccc(F)cc1)=C(/O)c1ccco1)C(F)(F)F,-8%,-7%,-6%,?,-8%,5%,-8.4%,?
Cc1ccc(-c2csc(NC(=O)c3ccc([N+](=O)[O-])o3)n2)cc1,-15%,/,-61%,?,-14%,1%,/,?
O=C1/C(=C/c2ccccc2)CCc2ccc(Cl)nc21,/,/,/,?,11%,35µM*,/,?
CCc1cccc(N=c2c([N+](=O)[O-])nn(-c3ccc4c(c3)OCCO4)n2O)c1,-3%,/,/,?,9%,?,/,?
CCSc1ncc(/C=N/Nc2ccc([N+](=O)[O-])cc2)n1C,-3%,-26%,6%,?,-5%,23%,-2.6%,?
CCOc1ccc(CCNC(=O)C2CC(=O)N(c3ccccc3OCC)C2)cc1OCC (stereo not given),0%,/,/,18%,-8%,-13%,/,4%[46.1 µM]
CCCCNC(=O)CCCn1c(=O)c2ccccc2n(Cc2cccc(Cl)c2)c1=O,/,2%,/,-3%[46.1 µM],/,-22%,-2.1%,3%[46.1 µM]
